VCAM-1 up: boosters of cytokine-driven VCAM-1 levels – cell-based, plate reader, pooled HUVEC, TNFa stimulus (AID 455) | hit rate 0.2% among 10,000 | augmentation, % at 5 µM | HUVEC TNFa-induced VCAM-1 immunofluorescence, plate reader; numbers were filed only for top-ranked candidate wells;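 active means a compound raising TNF-alpha-driven VCAM-1 surface staining, with its hit status upheld on visual or statistical review; inactive means the rest, including hits rejected on review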;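 further: 0% = TNFa with vehicle and 100% = strongest image-checked hit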
26S disassembly: blocks ATP-dependent breakdown of the yeast 26S proteasome; anti-FLAG beads, GFP-proteasome disassembly, flow cytometry; inhibition of disassembly, % (test concentration not listed); hit rate 0.2% among 24,000;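 active means above 40%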;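 further: plate controls were ATP control with full disassembly for no effect and ATP-gamma-S intact proteasomes for full effect; higher percent means more bead fluorescence retained so stronger block of disassembly; stock transfer was 100 nL into about 10 µL; wells with too few beads may also be inconclusive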
Active calls of the source: *; i = inactive; . = no result given. This is a subset; the hit share may differ from the screen's.

SMILES	26S disassembly	VCAM-1 up
Cc1c(C(=O)NC2CCCc3ccccc32)oc2ccc(S(=O)(=O)N3CCOCC3)cc12 (configuration not stated)	0.6	i
O=C(Cn1nc(Cc2cccnc2)c2ccccc2c1=O)NCC1COc2ccccc2O1 (configuration not stated)	-5.5	.
COc1ccccc1N1CCN(C(CNS(=O)(=O)c2ccccc2)c2cccnc2)CC1 (configuration not stated)	14.4	.
CCN(CCCNC(=O)CCCN1C(=O)COc2ccc(C)cc21)c1cccc(C)c1	1.8	.
Cn1c(C(=O)N2CCCC(C(=O)NCc3cccs3)C2)cc2sccc21 (configuration not stated)	0.8	.
CC1(O)c2ccccc2C(=O)N1CCc1ccccc1F (configuration not stated)	0.5	.
Cc1cccc(C)c1OCc1nnc(SCC(=O)Nc2nccs2)o1	1.2	.
CCCOC(=O)c1cc2ccccc2oc1=O	-0.6	.
Cc1ccccc1-n1nnc2c(=O)oc3ccccc3c21	-0.9	i
CNC(=O)c1ccc(Oc2ccc(C(=O)NC)cc2)cc1	-1.1	.
O=C(c1cc(-c2ccco2)nn1-c1cccc(Cl)c1)N1CCCCC1	0.7	i
C/C(N)=C(/C#N)C(=O)CSc1nnc(Nc2cccc(C)c2)s1	2.5	i
Cc1ccc(-n2c(Cc3cccn3C)nnc2SCC(=O)Nc2cc(C)on2)cc1	-0.1	.
COc1ccc(-n2c(Cc3cccn3C)nnc2SCC(=O)Nc2cccc(Cl)c2)cc1	0.4	i
O=C(NCCN1C(=O)C2C3C=CC(C3)C2C1=O)Nc1cccnc1 (configuration not stated)	-0.4	.
CCC(C)NC(=O)C1CC(c2ccc(OC)cc2)=NO1 (configuration not stated)	-0.3	.
O=C(COc1ccc(S(=O)(=O)N2CCCC2)cc1Cl)NC1CC1	-0.1	i
Cc1cc(=O)n2nc(N3CCC(C(=O)NC4CCCc5ccccc54)CC3)sc2n1 (configuration not stated)	5.3	.
CCc1ccc(-n2c(O)cnc2Nc2nc(C)cc(C)n2)cc1	1.7	.
Cc1cccc(NC(=O)c2ccccc2O)c1C	0.1	i
Cc1ccc(CCNC(=O)C2CCN(S(=O)(=O)c3cccc4nsnc34)CC2)cc1	0.3	i
CCOC(=O)c1c(C)n(C)c2ccc(OC)c(NC(=O)CCN3CCSCC3)c12	-1.0	i
CN(CCc1ccccn1)S(=O)(=O)c1ccc(F)cc1	-0.7	.
CN1C(=O)CSc2ccc(NC(=O)Nc3ccccn3)cc21	3.7	.
COc1ccc(-n2cnnc2SCCC#N)cc1	-2.3	i
CCOC(=O)CCC(=O)O[C@H]1[C@H](O[C@@H]2[C@@H](C)[C@H](O[C@H]3C[C@@](C)(OC)[C@@H](O)[C@H](C)O3)[C@@H](C)C(=O)O[C@H](CC)[C@@](C)(O)[C@H](O)[C@@H](C)C(=O)[C@H](C)C[C@@]2(C)O)O[C@H](C)C[C@@H]1N(C)C	-0.1	i
O=C(CCn1cccc1)Nc1nccs1	-0.2	.
CNC(=O)c1c[nH]n2c(=O)c(Cc3ccccc3F)c(C)nc12	0.7	.
COc1ccc(C(=O)CSc2nnc(C3CCCCC3)n2N)c(OC)c1	1.0	i
O=C(CN1CCN(S(=O)(=O)c2ccc(F)cc2)CC1)Nc1ccc(Cl)c(C(F)(F)F)c1	-1.1	.
Cn1c(=O)c2c(nc(SCC(=O)NCc3ccc4c(c3)OCO4)n2Cc2ccccc2)n(C)c1=O	1.2	i
COC(=O)CC1Oc2ccccc2N(Cc2ccc(C)cc2)C1=O (configuration not stated)	-0.8	.
O=C(Cn1nc(-c2ccc(Cl)cc2)ccc1=O)N1CCN(c2ccccc2)CC1	-0.2	.
CSc1ccc(C2NC(=O)c3c(sc4c3CCN(C)C4)N2)cc1 (configuration not stated)	4.1	.
Cc1nn(C)c(C)c1S(=O)(=O)NC1CCCC1	-1.2	.
CCOC(=O)C(C)n1cnc2c(nnn2Cc2ccc(C)cc2)c1=O (configuration not stated)	0.8	i

Arranged by the number under 26S disassembly (lowest first): 3 from the list above
Structure | 26S disassembly
O=C(CCn1cccc1)Nc1nccs1 | -0.2
CNC(=O)c1c[nH]n2c(=O)c(Cc3ccccc3F)c(C)nc12 | 0.7
Cn1c(=O)c2c(nc(SCC(=O)NCc3ccc4c(c3)OCO4)n2Cc2ccccc2)n(C)c1=O | 1.2

Further compounds.
SMILES	26S disassembly	VCAM-1 up
CCc1ccc(C2CC(c3ccccc3Cl)Nc3nc(N)nn32)cc1 (configuration not stated)	0.1	.
O=C(Nc1ccc2[nH]c3c(c2c1)CCCC3)c1ccco1	3.5	i
Cc1sc2ncnc(SCC(=O)N3CCCC3)c2c1C	-0.7	i
COc1cc(C2C(C(=O)c3ccc(C)o3)=C(O)C(=O)N2c2cc(C)on2)cc(Br)c1O (configuration not stated)	0.9	i
O=C(CCn1c(=O)[nH]c2ccsc2c1=O)N1CCN(Cc2ccc3c(c2)OCO3)CC1	-2.6	.
Cc1ccc(Cl)cc1N1CCN(C(=O)c2ccc(NS(=O)(=O)c3c(C)noc3C)cc2)CC1	-0.5	.
O=C(c1ccc(CNS(=O)(=O)c2ccccc2)cc1)N1CCN(c2ccccn2)CC1	-1.0	.
COc1ccccc1NC(=O)N1c2ccc(F)cc2CCC1C (configuration not stated)	-2.7	i
O=C1C(Cl)=C(N2CCCCC2)C(=O)N1c1ccccc1Cl	0.2	i
Cc1cc(=O)n2nc(N3CCCC(C(=O)NCCCN4CCc5ccccc5C4)C3)sc2n1 (configuration not stated)	-1.5	.
CCOc1ccc(NC(=O)CSc2nc3ccccc3c(=O)n2CCNC(C)=O)cc1	0.0	.
O=C(c1ccco1)N1CCN(C(=O)C2CCN(S(=O)(=O)c3cccc4nsnc34)CC2)CC1	1.2	i
O=C(Nc1cnc2ccccc2c1)c1ccncc1	0.6	.
CCOC(=O)N1CCN(S(=O)(=O)c2ccc(C(=O)Nc3nc4c(s3)CC(C)CC4)cc2)CC1 (configuration not stated)	0.3	.
COc1ccccc1OCCNC(=O)c1cccs1	-0.2	i
CCOc1cccc(-c2nnc3n2N=C(c2cc(OC)ccc2OC)CS3)c1	-0.7	i
CCOc1ccccc1NC(=O)Cn1nnc(C(=O)Nc2ccccc2Cl)c1N	1.2	.
Cc1ccc(-n2c(C)cc3c2CCCC3=O)cc1	4.8	i
CC(C)Cc1nnc(NC(=O)CCC(=O)N2CCOCC2)s1	-1.4	i
CC(C)Cn1c(CNC(=O)c2ccccc2)nc2ccccc21	-0.4	.
O=C(NCC1CCCO1)c1cc2c(s1)CS(=O)(=O)C2 (configuration not stated)	1.6	.
CCc1ccccc1NC(=O)CSc1nc2n[nH]c(C)c2c(=N)n1-c1ccc(OC)cc1	-0.4	i
CCOC(=O)c1nnn(-c2nonc2N)c1COc1cc(C)c(Cl)c(C)c1	-0.2	.
COc1cc2nc(NCCN3CCOCC3)n3nc(-c4ccccc4)nc3c2cc1OC	0.5	.
COc1ccc(S(=O)(=O)N2CCN(CC(=O)Nc3cc(C(F)(F)F)ccc3Cl)CC2)cc1	0.4	.
Cc1ccc(N=Cc2ccc[nH]2)c(O)c1	-2.4	i
COc1ccc(-c2noc(CN3CCC(Cc4ccccc4)CC3)n2)cc1	0.7	30.2
CCOC(=O)N1CCN(c2c(Nc3ccc4c(c3)OCCO4)c(=O)c2=O)CC1	-1.0	.
O=C(c1ccc(CS(=O)(=O)c2ccc(Br)cc2)o1)N1CCN(c2ncccn2)CC1	-1.0	.
CC(C)C(c1nnnn1C1CCCC1)N1CCCc2ccccc21 (configuration not stated)	2.6	i
COc1ccc(Nc2ncc3c(n2)CC(c2ccc(OC)cc2)CC3=O)cc1 (configuration not stated)	3.9	i
Cc1cc(C)n(C(=O)c2cc3ccccc3c(=O)o2)n1	1.6	.
CCCOc1ccc(C(=O)Nn2c(C)nc3ccccc3c2=O)cc1	-0.1	.
COc1ccc(N2C(=O)C3CCCN3C2c2cccc(Br)c2)cc1 (configuration not stated)	3.6	.
COc1ccc2[nH]c(C)c(CCN3C(=O)OC(C)(C)C3(C)O)c2c1 (configuration not stated)	0.9	i
c1c2c(cc3sc(N4CCOCC4)nc13)OCO2	0.7	.
O=C(O)c1cccc(CN2C(=O)SC(Nc3ccccc3)C2=O)c1 (configuration not stated)	-1.0	i
Cc1cc(NCc2ccc3c(c2)OCO3)n2nc(C)nc2n1	-1.4	.
Cc1cccc(-n2ncc3c(NCc4ccccn4)ncnc32)c1	1.1	i
O=C(NCC1CCCO1)c1ccc(N2CCCCC2)nc1 (configuration not stated)	-1.1	i
COc1ccc(-n2ncc3c(NCCCN4CCOCC4)ncnc32)cc1	-0.6	i
CC(C)OCCCNC(=O)c1cc2c(s1)CS(=O)(=O)C2	-0.2	i
COC(=O)Cn1ncc2c(C)n(Cc3ccccc3)c(C)c2c1=O	0.4	i
COCCNC(=O)CS(=O)Cc1nc(-c2ccc(OC)cc2)oc1C (configuration not stated)	0.3	.
Cc1ccc2c(c1)c1c(n2CC(O)CN2C(=O)CNC2=O)C(=O)CCC1 (configuration not stated)	-1.2	.
O=S(=O)(NCc1cn2ccsc2n1)c1ccc(Oc2ccccc2)cc1	-0.4	.
Cc1ccc2c(c1)-c1c(cnn1CC(=O)O)CO2	0.1	.
Cc1cc(C(F)(F)F)nn1-c1nc(-c2ccco2)cc(C(F)(F)F)n1	-1.1	.
CC(C)C1N=C2c3ccccc3N=C(SCc3cc(=O)n4ccccc4n3)N2C1=O (configuration not stated)	0.2	i
CCOc1ccccc1NC(=O)CN(C)S(=O)(=O)c1cccc2nsnc12	-7.9	i
Cc1ccsc1C(C(=O)NC1CCCCC1)N(C(=O)Cc1cccs1)C1CC1 (configuration not stated)	1.5	i
COC(=O)c1ccc2c(=O)n(Cc3ccco3)c(SCC(=O)Nc3ccccc3Cl)nc2c1	-6.6	.
CCc1ccc(NC(=O)c2cc(C(C)C)on2)cc1	0.6	.
COc1ccc(N(CC(=O)Nc2ccc3c(c2)OCCO3)S(=O)(=O)c2c(C)noc2C)cc1	-0.1	.
CCOc1ccccc1NC(=O)c1ccc(F)c(S(=O)(=O)N2CCC3(CC2)OCCO3)c1	-7.5	.
CC(=O)C1C(c2ccccc2OC(F)F)NC(=O)NC1(O)C(F)(F)F (configuration not stated)	-1.5	.
Cc1oc(-c2ccc(Cl)cc2)nc1CN1CCC(C(=O)NCCCN2CCOCC2)CC1	3.3	.
C=CCn1c(Cc2csc(N)n2)nnc1SCC(=O)OCC	-1.0	i
Cc1oc(-c2cccs2)nc1CS(=O)CC(=O)NCCc1ccccc1 (configuration not stated)	19.8	.
CCCCN(C)CCNC(=O)c1c[nH]c2ccc(S(=O)(=O)N(CC)CC)cc2c1=O	-0.7	.

Next part:
SMILES	26S disassembly	VCAM-1 up
O=C(NCC(=O)N(c1cccnc1)C(C(=O)NC1CCCCC1)c1cccnc1)c1ccco1 (configuration not stated)	1.5	i
CCOC(=O)CC(NS(=O)(=O)c1ccc(NC(C)=O)cc1)c1ccc(OCC)cc1 (configuration not stated)	-5.5	i
CCCN1C(=O)c2cc(C(=O)Nc3ccccc3CC)ccc2C1O (configuration not stated)	0.6	.
Cc1ccc(-c2nc(C3CCN(S(=O)(=O)c4ccc(C(F)(F)F)cc4)CC3)no2)cc1	0.0	.
CCOC(=O)CNc1ccc2c(c1)OCO2	-2.3	i
O=C(NCc1nnc(SCC(=O)N2CCC(Cc3ccccc3)CC2)o1)c1ccccc1F	-0.8	i
Cc1ccccc1CNS(=O)(=O)c1ccc2c(c1)OCCO2	-0.6	i
NS(=O)(=O)c1ccc(CCNC(=O)CNC(=O)C2CCCCC2)cc1	0.4	.
COC(=O)c1ccccc1NC(=O)Cn1c(-c2nonc2N)nc2ccccc21	1.6	i
O=C(Nc1cccs1)NC1CCCC1	0.3	.
Cc1ccccc1NC(=O)Cn1cnc2c(oc3ccccc32)c1=O	-0.6	.
COc1cccc(OC)c1C(=O)N1CCN(S(=O)(=O)c2ccc(C)cc2)CC1	-1.8	i
CCOC(=O)C1=C(N2CCCCC2)c2cc3c(n2C1=O)CCCC3	0.1	.
COc1cc(C(=O)NCc2nnc(SCC(=O)N3CCCCC3)o2)cc(OC)c1OC	-0.5	.
CCOc1ccc(CCNC(=O)c2oc3c(c2C)-c2[nH]ncc2CC3)cc1OCC	2.0	.
CC(C)N1C(=O)CN(C2CCCCCC2)C(=O)C1c1ccccc1F (configuration not stated)	0.6	.
CC1CCN(S(=O)(=O)c2ccc3c(c2)CCN3C(=O)CCC(=O)O)CC1	-0.4	.
O=C(NCc1ccc2c(c1)OCO2)C1CCCN(S(=O)(=O)c2cccc3cccnc23)C1 (configuration not stated)	1.5	i
OC(COc1ccc(OCC(O)CN2CCCCCC2)cc1)CN1CCCCCC1 (configuration not stated)	0.1	.
COc1ccc2c(c1)n([O-])c1c([n+]2=O)CCC1	-2.2	i

Retrieved by structure from the entries so far (4):
SMILES	26S disassembly	VCAM-1 up
COc1ccc2c(c1)n([O-])c1c([n+]2=O)CCC1	-2.2	i
CCOc1ccc(CCNC(=O)c2oc3c(c2C)-c2[nH]ncc2CC3)cc1OCC	2.0	.
CCOC(=O)C1=C(N2CCCCC2)c2cc3c(n2C1=O)CCCC3	0.1	.
O=C(NCc1ccc2c(c1)OCO2)C1CCCN(S(=O)(=O)c2cccc3cccnc23)C1 (configuration not stated)	1.5	i
